# High-throughput results as filed in PubChem BioAssay.
# KCNQ2 block: KCNQ2 potassium channel inhibitors, primary screen, cell-based, CHO-K1, FluxOR thallium flux, B-score (AID 2156); O88943; 20 min; active compounds read low; only compounds with negative scores are shown here; some inactives read as strong as hits; B-score at 10 µM; 310,000 tested, 1.1% active;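 active = fluorescence ratio B-score at most minus 3 library SDs, with starting brightness B-score within 2 library SDs, cut at about -5.5 in these data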
# Target sequence (O88943 whole entry, looked up): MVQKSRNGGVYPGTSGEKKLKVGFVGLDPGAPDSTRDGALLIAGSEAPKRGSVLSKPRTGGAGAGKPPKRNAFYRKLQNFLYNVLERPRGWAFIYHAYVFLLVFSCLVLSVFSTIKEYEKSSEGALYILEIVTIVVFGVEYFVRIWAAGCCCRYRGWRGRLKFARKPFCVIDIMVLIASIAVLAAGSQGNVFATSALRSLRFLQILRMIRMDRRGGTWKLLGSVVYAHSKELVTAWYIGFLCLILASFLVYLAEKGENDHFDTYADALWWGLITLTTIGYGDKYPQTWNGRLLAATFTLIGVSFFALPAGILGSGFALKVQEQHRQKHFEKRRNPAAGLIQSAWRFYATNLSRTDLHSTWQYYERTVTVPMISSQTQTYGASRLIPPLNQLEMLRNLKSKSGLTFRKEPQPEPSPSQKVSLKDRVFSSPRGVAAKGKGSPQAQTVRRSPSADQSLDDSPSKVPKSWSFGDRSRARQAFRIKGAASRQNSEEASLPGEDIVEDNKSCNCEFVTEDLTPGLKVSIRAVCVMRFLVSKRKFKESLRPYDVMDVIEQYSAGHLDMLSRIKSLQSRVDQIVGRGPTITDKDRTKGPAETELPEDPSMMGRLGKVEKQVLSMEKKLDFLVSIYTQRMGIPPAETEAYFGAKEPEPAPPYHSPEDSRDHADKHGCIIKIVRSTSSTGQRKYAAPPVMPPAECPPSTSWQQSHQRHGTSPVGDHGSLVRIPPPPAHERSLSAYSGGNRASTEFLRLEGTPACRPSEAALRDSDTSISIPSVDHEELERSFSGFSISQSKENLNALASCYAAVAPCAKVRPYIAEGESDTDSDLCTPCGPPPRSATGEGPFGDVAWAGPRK
# KCNQ2 block baseline: second read-out of KCNQ2 block, no call of its own (marks repeat the call); B-score; measured here: initial fluorescence intensity artifact check;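 brightness before thallium and not channel activity; 0 = typical well and far values either way flag optical interference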
# * hit, by the source's call; i = inactive. Only part of the results is shown; the hit share may differ from the screen's.
# Results follow in this order: KCNQ2 block	KCNQ2 block baseline
> Cc1nc2ccc(Cl)cc2c(-c2ccccc2)c1C(=O)O
→ i	1.09
> OC(CNC1CCCCC1)c1ccccc1 (stereo not given)
→ i	1.24
> C/C(=N\N1CCN(C)CC1)c1c(O)n(Cc2ccccc2)c(=O)[nH]c1=O
→ i	2.03
> COc1ccc(-n2c(O)c(/C=C3\C=Nc4ccc(Br)cc43)c(=O)[nH]c2=O)c(OC)c1
→ i	1.14
> CCOC(=O)CC1=C(C(=O)OCC)C2(C(=O)Nc3ccccc32)C(C#N)=C(N)O1 (stereo not given)
→ i	0.01
> Clc1ccc(C(c2ccccc2)c2ncc[nH]2)cc1 (stereo not given)
→ i	1.13
> Cn1cccc1/C=C1/C(=O)NC(=O)N(Cc2ccc(F)cc2)C1=O
→ i	2.07
> CC(C)Sc1nnc([C@@H](N)Cc2ccccc2)o1
→ i	2.03
> Nc1ccc2ccc3cccc[n+]3c2c1
→ i	98.6
> COCCCn1c(N)c(C(=O)NCCC(C)C)c2nc3ccccc3nc21
→ i	-0.2
> CCN(CCO)c1ccc(N=Cc2c(O)n(C)c(=S)[nH]c2=O)cc1
→ i	0.17
> CC(O)(CS(=O)(=O)c1cccc(C(F)(F)F)c1)C(=O)Nc1ccc(C(F)(F)F)cc1 (stereo not given)
→ i	-0.05
> COC(=O)C1=C(c2ccccc2)C[C@@H]2CC[C@H]1N2C(=O)NCc1ccc(C(F)(F)F)cc1
→ i	-0.77
> CCOC(=O)c1ccccc1NC(=O)c1c(O)[nH]c(=S)[nH]c1=O
→ i	0.79
> O=C(CCC(=O)N1CC2C[C@@H](C1)Cn1c2cccc1=O)NCCc1ccccc1
→ i	2.76

# The last three records of the part before are carried over, then new ones follow.
# Results follow in this order: KCNQ2 block	KCNQ2 block baseline
> COC(=O)C1=C(c2ccccc2)C[C@@H]2CC[C@H]1N2C(=O)NCc1ccc(C(F)(F)F)cc1
→ i	-0.77
> CCOC(=O)c1ccccc1NC(=O)c1c(O)[nH]c(=S)[nH]c1=O
→ i	0.79
> O=C(CCC(=O)N1CC2C[C@@H](C1)Cn1c2cccc1=O)NCCc1ccccc1
→ i	2.76
> O=C(COC(=O)c1ccc(O)cc1)Nc1ccc(Cl)cc1C(=O)c1ccccc1
→ i	-0.72
> O=c1[nH]c(=S)n(Cc2ccc(F)cc2)c(O)c1C=NCc1ccc2c(c1)OCO2
→ i	0.49
> Cc1ccc(OCC(=O)N2CCN(C3CCC(c4ccccc4)CC3)CC2)cc1 (stereo not given)
→ -6.25*	0.53*
> Cc1cc(OCc2nn[nH]n2)c2c3c(c(=O)oc2c1)CCC3
→ i	0.99
> COc1ccc(CC2C(=O)NC(=O)N(c3ccccc3)C2=O)c(OC)c1 (stereo not given)
→ i	1.58
> COc1ccccc1-n1c(-c2ccccc2F)nc2ccccc2c1=O
→ i	1.66
> CN1CCN(Cc2cn(C)c3ccccc23)CC1CCO (stereo not given)
→ i	0.1
> Cn1cc(C=C2C(=O)NC(=O)NC2=O)c2ccccc21
→ i	21.3
> O=C1NC(=O)C(CCc2ccncc2)(CCc2ccccn2)C(=O)N1c1ccc(Br)cc1 (stereo not given)
→ i	-0.88
> CC(=O)N(C)CC#CCN1CCCC(CO)C1 (stereo not given)
→ i	1.24
> COc1ccc(C(=O)C2CCCN(Cc3ccc(F)cc3F)C2)cc1F (stereo not given)
→ i	-0.17
> O=c1[nH]c(=O)n(CCc2ccccc2)c(O)c1C=NC1CC1
→ i	-1.75
> Cc1ccc(-n2c(C)nc3ccccc3c2=O)c(C)c1
→ i	0.53
> O=c1c2ccccc2nc(Cc2ccccc2)n1-c1ccccc1
→ i	-0.38
> O=C(CCc1nnc2ccc(NCc3ccccc3Cl)nn12)N1CCC2(CC1)OCCO2
→ i	-0.07

# Brought forward from above: 7 entries, followed by the next part.
# Results follow in this order: KCNQ2 block	KCNQ2 block baseline
> O=C1NC(=O)C(CCc2ccncc2)(CCc2ccccn2)C(=O)N1c1ccc(Br)cc1 (stereo not given)
→ i	-0.88
> CC(=O)N(C)CC#CCN1CCCC(CO)C1 (stereo not given)
→ i	1.24
> COc1ccc(C(=O)C2CCCN(Cc3ccc(F)cc3F)C2)cc1F (stereo not given)
→ i	-0.17
> O=c1[nH]c(=O)n(CCc2ccccc2)c(O)c1C=NC1CC1
→ i	-1.75
> Cc1ccc(-n2c(C)nc3ccccc3c2=O)c(C)c1
→ i	0.53
> O=c1c2ccccc2nc(Cc2ccccc2)n1-c1ccccc1
→ i	-0.38
> O=C(CCc1nnc2ccc(NCc3ccccc3Cl)nn12)N1CCC2(CC1)OCCO2
→ i	-0.07
> CC(C)N1CCN(Cc2ccccc2C(F)(F)F)CC1CCO (stereo not given)
→ i	0.03
> CCOc1cc2c(cc1OCC)-n1cccc1C(c1ccc(OC(F)F)cc1)NC2 (stereo not given)
→ i	-0.03
> CCCCCCC(=O)N/N=C/c1c(O)n(C(C)CC)c(=S)[nH]c1=O (stereo not given)
→ i	-0.18
> CC(C)CCNC(=O)c1cc(C(=O)c2cc(Br)ccc2O)cn(CCC(C)C)c1=O
→ i	0.04
> O=c1[nH]c(=S)n(-c2ccccc2)c(O)c1/C=N/N1CCOCC1
→ i	-0.05
> O=c1c2ccccc2nc(Cc2ccccc2)n1-c1cccc(O)c1
→ i	-1.94
> CCS(=O)(=O)NCc1nnc2n1-c1ccc(Br)cc1C(c1ccccc1Cl)=NC2
→ i	1.2
> O=[N+]([O-])c1ccc(C2[C@H]3C(c4ccccc4)=NC4(CCCCC4)N23)cc1 (stereo not given in full)
→ i	0.48
> COC(=O)[C@@H]1C[C@@]1(C)[C@@H](NP(=O)(c1ccccc1)c1ccccc1)c1ccccc1
→ i	0.36
> CC(=O)Nc1cc([As](=O)(O)O)ccc1O
→ i	-1.56
> CCN(CC)S(=O)(=O)c1cc(NC(=O)C(C)N2CC=C(c3ccccc3)CC2)ccc1C (stereo not given)
→ i	0.44
> Cc1nc2cc([N+](=O)[O-])ccc2c(=O)n1-c1ccccc1[N+](=O)[O-]
→ i	-0.27
> O=C(O)c1cc2ccccc2oc1=O
→ i	0.46
> CCCCCCn1c(O)c(C=Nc2ccccc2N2CCOCC2)c(=O)[nH]c1=S
→ i	-0.05
> COc1ccc(-n2c(Cc3ccccc3)nc3ccccc3c2=O)cc1
→ i	-0.86
> CCCCC(=O)N/N=C/c1c(O)n(-c2ccccc2)c(=O)[nH]c1=O
→ i	1.96
> COc1ccccc1N=Cc1c(O)n(C)c(=O)n(C)c1=O
→ i	0.94
> CCOC(=O)[C@@]12C(=O)C(=O)N[C@]1(c1ccccc1)C1OCCCC12 (stereo not given in full)
→ i	0.08
> Cc1cc(C)n2nc(SC(C)C(=O)N3CCC4(CC3)OCCO4)nc2n1 (stereo not given)
→ i	1.43
> CN1CCN(Cc2cc(C(C)(C)C)c(O)c(C(C)(C)C)c2)CC1
→ i	0.16
> COC(=O)C1=C(c2ccc(S(C)(=O)=O)cc2)C[C@@H]2CC[C@H]1N2C(=O)N1CCOCC1
→ i	-1.05
> CCOc1ccc(-n2c(O)c(N=Nc3ccc([N+](=O)[O-])cc3)c(=O)[nH]c2=O)cc1
→ i	1.76
> O=c1[nH]c(=S)n(-c2ccc(Cl)cc2)c(O)c1/C=N/N1CCOCC1
→ i	-1.24
> CCOC(=O)Cn1cc(C(=O)c2ccccc2F)c2ccccc21
→ i	0.44
> CCOC(=O)c1c(C)n(Cc2ccccc2)c2ccc(O)cc12
→ i	2.13
> CN1CCN(c2ccc(NC(=O)Oc3ccccc3)cc2)CC1
→ i	0.4
> Cc1c(Br)c(=O)oc2cc(OCC(=O)N3C[C@H]4C[C@@H](C3)c3cccc(=O)n3C4)ccc12
→ i	0.12
> CC[C@@H](CO)C1CC2NC3CC4(c5ccccc5N(C)[C@@H]24)C(O)C31 (stereo not given in full)
→ i	0.04
> O=C(NC[P+](=O)O)OCc1ccccc1
→ i	0.05
> Cc1c(C(=O)Nc2ccccc2)c2cc(O)ccc2n1Cc1ccccc1
→ i	-0.01
> C/C(=N/O)c1ccc2ccc3ccccc3c2c1
→ i	0.4
> CN(C)c1ccc(C2C3C=CC(C3)C2(C#N)C(=O)O)c(Br)c1 (stereo not given)
→ i	-0.05
> O=C(Cn1cnc2ccccc2c1=O)NCC(=O)N1CCC2(CC1)OCCO2
→ i	2.3
> Cc1ccc(OP(=O)(NC(C)c2ccccc2)Oc2ccc(C)cc2)cc1 (stereo not given)
→ i	0.27
> CCCCCCn1c(=O)c(C(=O)Nc2nnc(C)s2)c(O)c2ccccc21
→ i	0.52
> C[C@H]1CCC/C=C/C2C[C@H](O)CC2[C@H](O)/C=C/C(=O)O1 (stereo not given in full)
→ i	1.22
> CN1C2CCC1CC(OC(=O)c1cc(Cl)cc(Cl)c1)C2 (stereo not given)
→ i	0.05
> O=c1[nH]c(=S)n(C2CC2)c(O)c1/C=N/Nc1ccccc1
→ i	1.4
> O=c1cc(C2CCNCC2)[nH][nH]1
→ i	-2.97
> COc1ccccc1C(=O)C1CCCN(Cc2cnc(C)s2)C1 (stereo not given)
→ i	-0.01
> O=C(O)CCCc1ccc(N(CCCl)CCCl)cc1
→ i	1.13
> Cc1ccsc1C(=O)C1CCCN(Cc2cc3ccccc3o2)C1 (stereo not given)
→ i	0.08
> CC(=O)N1N=C2C3CCN(CC3)C2C1c1ccc(Br)cc1 (stereo not given)
→ i	-0.66
> COC(=O)C(O)(c1ccc(NC(=O)c2cccs2)cc1)C(F)(F)F (stereo not given)
→ i	-2
> CNC(=S)N1CC2CC(C1)c1cccc(=O)n1C2 (stereo not given)
→ i	-1.77
> CN(C)CC1CCCCC1OC(=O)Cc1ccc(Cl)c([N+](=O)[O-])c1 (stereo not given)
→ i	0.94
> COc1ccc2c(C)c(CCC(=O)N3C[C@H]4C[C@@H](C3)c3cccc(=O)n3C4)c(=O)oc2c1
→ i	-0.05
> COc1cc(/C=N/NC(=O)CN2CC(c3ccccc3)CC2=O)ccc1OC(=O)N(C)C (stereo not given)
→ i	-0.51
> Cc1nn(Cc2ccccc2)c(C)c1C(=O)NCc1ccccc1
→ i	1.12
> Nc1c(C(=O)NCCCc2ccccc2)c2nc3ccccc3nc2n1Cc1cccs1
→ i	-2.33
> Cc1c(C(c2ccccc2Cl)c2c(O)c3ccccc3oc2=O)c(=O)n(-c2ccccc2)n1C (stereo not given)
→ i	0.5
> FC(F)(F)c1cccc(-n2nnnc2C2(N3CCOCC3)CCCCC2)c1
→ i	0.66
> O=c1cccc2n1C[C@@H]1C[C@@H]2CN(CC(O)c2ccc([N+](=O)[O-])cc2)C1 (stereo not given in full)
→ i	-1.29
> O=c1[nH]c(=S)n(-c2ccc(Br)cc2)c(O)c1C=Nc1ccc(N2CCOCC2)cc1
→ i	1.53
> CC1C(c2cccs2)=[N+]([O-])C(C)(C(=O)c2ccc(Cl)cc2)N1O (stereo not given)
→ i	0.17
> CCOc1ccc(-n2c(O)c(C=Nc3ccc(N4CCOCC4)cc3)c(=O)[nH]c2=O)cc1
→ i	0.58
> CCN1CC=C(c2c[nH]c3ccccc23)CC1
→ i	0.86
> N#Cc1ccccc1Cn1cc(C(=O)C2CC2)c2ccccc21
→ i	0.08
> COc1cc(C(c2c(C)[nH]n(-c3ccccc3)c2=O)c2c(C)[nH]n(-c3ccccc3)c2=O)cc(OC)c1OC
→ i	-2.5
> COc1ccc(-n2c(-c3ccc(C)cc3)nc3ccccc3c2=O)cc1
→ i	1.2

# (continued)
# Results follow in this order: KCNQ2 block	KCNQ2 block baseline
> Cc1cccc(N2C(=O)NC(=O)/C(=C/c3ccc(-c4ccc(C(=O)O)c(Cl)c4)o3)C2=O)c1
→ i	0.99
> CC(=NCC1CCCO1)c1c(O)n(-c2ccccc2)c(=O)[nH]c1=O (stereo not given)
→ i	-0.84
> COc1cccc(NC(=O)CN2CC(c3ccccc3)CC2=O)c1 (stereo not given)
→ i	0.93
> CCCCCCC(=O)N/N=C/c1c(O)n(CCCC)c(=S)[nH]c1=O
→ i	-0.74
> O=C(Nc1ccc2ccccc2c1)c1nn(C23CC4CC(CC(C4)C2)C3)cc1Br
→ i	-0.79
> COc1ccc([N+](=O)[O-])cc1N=Cc1c(O)n(CCc2ccccc2)c(=O)n(C(C)C)c1=O
→ i	-0.63
> CC(=Nc1ccc2c(c1)CCC2)c1c(O)n(C2CCCCC2)c(=O)[nH]c1=O
→ i	0.5
> C=C(C)Cn1c(=O)n(CC2CS2)c2ccccc21 (stereo not given)
→ i	-2.05
> CN1C(=O)/C(=C/c2cccn2-c2ccc3ccccc3c2)C(=O)NC1=S
→ i	1.28
> CC(C)OP(=O)(OC(C)C)C(NCc1ccccc1)c1ccccc1 (stereo not given)
→ i	5.84
> O=c1[nH]c(=S)[nH]c(O)c1N=Nc1ccc(SC(F)F)cc1
→ i	-0.02
> O=C1CC2OCC=C3CN4CCC56c7cc([N+](=O)[O-])ccc7N1C5C2C3CC46 (stereo not given)
→ i	0.45
> CCN(CC)c1ccc(N=Cc2c(O)n(-c3cc(OC)ccc3OC)c(=O)[nH]c2=O)cc1
→ i	0.36
> Cc1ccc2c(c1)c(=O)c1c3n2CCN(CC2CO2)C3CC1 (stereo not given)
→ i	-0.08
> Cn1c(=O)c2nncnc2n(C)c1=O
→ i	-0.1
> CCOC(=O)c1ccc(-[n+]2c(-c3ccccc3)cc(-c3ccccc3)cc2-c2ccccc2)cc1
→ -8.47*	-0.3*
> O=[N+]([O-])c1ccc(C[n+]2c(-c3ccccc3)cc(-c3ccccc3)cc2-c2ccccc2)cc1
→ i	0.57
> O=c1c2ccccc2nc(-c2ccccc2)n1-c1ccccn1
→ i	-0.08
> O=C(N/N=C/c1c(O)n(-c2cccc3ccccc23)c(=O)[nH]c1=O)c1ccncc1
→ i	1.25
> C=CCn1c(O)c(C(C)=NCCN2CCN(C(=S)NC)CC2)c(=O)[nH]c1=O
→ i	-0.64
> Oc1c(Br)cc(Br)cc1CN1CCN(Cc2ccccc2)CC1
→ i	-1.33
> C[C@]12CCC3C(CCC4=CC(O)CC[C@@]43/C=N/O)C1(O)CCC2C1=CC(=O)OC1 (stereo not given in full)
→ i	-1.52
